Sa helicase inh = blocks Staphylococcus aureus DNA helicase; purified S. aureus helicase, fluorescence unwinding assay; about half of the hits fall short of the stated cut; inhibition, %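 (tested at about 80 µM)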; actives 0.05% (n = 120,000);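 active means both duplicates at 50% or more, or one of them with a favoured structure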;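 further: 0% = mean of negative control wells and 100% = mean of positive control wells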
MgrA-DNA mod = S. aureus MgrA-DNA binding modulation; fluorescence polarization; inhibition, %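 (about 10 µg/mL by stock and volumes)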; actives 0.13% (n = 84,000);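 active means above 50% in either of two replicates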;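 further: 0% = protein plus DNA without compound and 100% = DNA alone without protein; higher means less MgrA bound to DNA so lower polarization; one replicate is shown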
Starred values were filed as active, the others as inactive; nt = no result given. The list is partial (hit frequency here may not be typical).

SMILES	Sa helicase inh	MgrA-DNA mod
CC(C)(C)c1ccc(OCc2nc3ccccc3[nH]2)cc1	24	nt
COc1ccccc1C1/C(=C(/O)c2ccccc2)C(=O)C(=O)N1CC(C)O (stereo not given)	8	nt
O=C(NCCOc1ccccc1Cc1ccccc1)c1cccnc1	9	nt
CC(=O)Oc1ccc(-c2nc3cc(Cl)ccc3o2)cc1	21	-2.1
COc1cc(OC)cc(N2C(=O)CSCC2=O)c1	nt	0.9
O=C(NCC(c1ccco1)N1CCN(c2ccccc2)CC1)c1ccccc1 (stereo not given)	-2	nt
COc1cc(N)c(Cl)cc1C(=O)OCC(=O)NC1(C#N)CCCCC1	-4	nt
O=C(Cc1ccccc1)c1c[nH]c(C(=O)NCCc2ccccn2)c1	nt	-1.1
Nc1ccc(Sc2ccc3ccccc3c2Cl)c(Cl)c1	4	5.0
O=C(O)c1cnc(-c2ccccc2)nc1-c1ccncc1	12	nt
c1ccc(-c2nnc(NC3=NCCC3)o2)cc1	-5	nt
CCc1ccc(C2NCCc3cc4c(cc32)OCCO4)cc1 (stereo not given)	6	-2.5
FC(F)(F)c1nnc2scc(-c3ccc(Cl)cc3)n12	nt	0.5
CCCCCn1c(CCC(=O)Oc2ccccc2OC)nc2c1c(=O)[nH]c(=O)n2CCCC	14	nt
O=C(NCCc1ccccc1)c1cnn2ccccc12	9	nt
S=C(NC1CC1)NC1CCCc2ccccc21 (stereo not given)	-1	nt
CC(=O)OCc1ccccc1Sc1ccc(Cl)cc1C(=O)O	nt	-1.9
CC1(C)OC(=O)C(=C2C3CC4CC(C3)CC2C4)C(=O)O1	4	nt
COC(=O)Cn1ncc2c3ccccc3n(Cc3cc(C)ccc3C)c2c1=O	2	0.8
CC(C)(C)OC(=O)C1C(=O)CC(C)(O)C(C(=O)OC(C)(C)C)C1/C=C/c1ccccc1 (stereo not given)	-7	nt
N=C1C(c2ccccc2)=C(O)CN1c1ccc(S(=O)(=O)N2CCOCC2)cc1	5	nt
CCOC(=O)C(CCC(=O)O)(CCC(=O)O)C(C)=O	nt	0.9
COC(=O)C1C(c2ccccc2)C(C(=O)OCc2ccccc2)C1c1ccccc1 (stereo not given)	3	-2.6
CCOC(=O)N1CCC(NS(=O)(=O)c2csc(C(N)=O)c2)CC1	21	nt
N=c1c(S(=O)(=O)c2ccccc2)cc2c(=O)n3ccccc3nc2n1C1CCCC1	3	3.2
Cc1cccc(OCC(=O)N(Cc2ccccc2)c2ccccn2)c1C	18	nt
CCc1ccc2c(c1)=C(c1sc(N)nc1O)C(=O)N=2	-7	1.5
O=C(NCCOc1ccc(F)cc1)c1ccccc1-c1ccccc1	4	nt
CNC(=O)COC(=O)c1ccc(Br)o1	5	nt
N#CC1=C(SCC(=O)N(c2ccccc2)c2ccccc2)NC(=O)CC1c1ccccc1F (stereo not given)	3	nt

Quoted from the listing:
`CCOC(=O)N1CCC(NS(=O)(=O)c2csc(C(N)=O)c2)CC1` in Sa helicase inh has 21
`CC1(C)OC(=O)C(=C2C3CC4CC(C3)CC2C4)C(=O)O1` in Sa helicase inh has 4
`O=C(NCCOc1ccccc1Cc1ccccc1)c1cccnc1` in Sa helicase inh has 9
`COC(=O)Cn1ncc2c3ccccc3n(Cc3cc(C)ccc3C)c2c1=O` in Sa helicase inh has 2
`N=c1c(S(=O)(=O)c2ccccc2)cc2c(=O)n3ccccc3nc2n1C1CCCC1` in MgrA-DNA mod has 3.2
`CCCCCn1c(CCC(=O)Oc2ccccc2OC)nc2c1c(=O)[nH]c(=O)n2CCCC` in Sa helicase inh has 14
`N=C1C(c2ccccc2)=C(O)CN1c1ccc(S(=O)(=O)N2CCOCC2)cc1` in Sa helicase inh has 5

Next structures.
SMILES	Sa helicase inh	MgrA-DNA mod
COCC(=O)NCCc1nc2ccccc2n1C	-20	nt
O=C1/C(=C/c2c[nH]c3ccccc23)COc2ccccc21	nt	-0.5
O=C1CC(C(=O)c2ccccc2)N=C(N2CCOCC2)N1 (stereo not given)	13	4.0
CCn1c(=O)c2sccc2n2c(CCCC(=O)Nc3ccccc3)nnc12	6	3.2
CCOC(=O)C(=CNc1ccccc1F)C(=O)OCC	nt	-2.2
N#C/C(=C\c1cccs1)C(N)=O	-138	nt
CCOc1ccc(NC(=O)COc2nsnc2N2CCOCC2)cc1	4	nt
O=C(/C=C/c1nc2ccccc2s1)N1CCN(C(=O)C2CCCO2)CC1 (stereo not given)	14	nt
CC(C)(C)C(=O)Nc1c(Cl)sc2nccc(=O)n12	0	-0.4
O=C(Nc1cccc(-c2nc3ccccc3o2)c1)c1cccnc1	-10	nt
C/C=N/NC(=O)CSc1nc2ccccc2s1	1	-0.7
CC(N)(Cc1cccc(O)c1)C(=O)O (stereo not given)	nt	-1.2
COc1ccc(-c2nc3c4c5c(sc4ncn3n2)C(C)(C)NC(C)(C)C5)cc1	nt	-1.7
Cc1ccc(CN(C)C(=O)c2ccc(-c3ccccc3)cc2)o1	-3	nt
O=C(CSc1nc(=O)n(Cc2ccncc2)c2c1CCCC2)Nc1ccccc1	13	nt
CC1SCC(=O)N(CC(=O)NCCc2ccccc2)C1=O (stereo not given)	14	nt
Nc1ccccc1SCC(O)Cn1ccc2ccccc21 (stereo not given)	nt	0.3
COc1ccc(C2C(C(=O)N3CCC(C)CC3)c3ccccc3C(=O)N2C)cc1 (stereo not given)	-15	nt
COc1cccc(/C=N/NC(=O)CN2CC(c3ccccc3)CC2=O)c1OC (stereo not given)	1	nt
O=C(C1CCCC1)N(CC1CCCO1)c1nc2ccccc2s1 (stereo not given)	12	nt
Nc1ccc2c(c1)C(=O)N(CCO)C2=O	-20	nt
COc1cc(OC)cc(-c2nc3c4ccccc4[nH]c(=O)n3n2)c1	-11	nt
N#Cc1ccc(-c2csc(-c3ccc(C4SCCS4)cc3)n2)cc1	nt	0.6
Cc1cc(C)nc(NCC(O)COc2ccccc2C)n1 (stereo not given)	8	-0.5
Cc1nccc(-c2cccc(NC(=O)c3ccccc3Cl)c2)n1	nt	-0.2
Clc1ccc(SCc2ncon2)cc1	nt	-1.6
CC1CSC(N(C(=O)/C=C/c2cn(CCC#N)c3ccccc23)c2ccc(Cl)cc2)=N1 (stereo not given)	-9	nt
Cc1ccc(S(=O)(=O)NCCc2nnc3ccc(SCC(=O)N4CCCC4)nn23)cc1	1	0.7
CCc1nnc2c(-n3nc(C)cc3C)nc3ccccc3n12	-41	nt
COc1ccc(NC(c2ccccc2)C(F)(F)CO)cc1 (stereo not given)	-9	nt
Cn1c(=O)c(=O)n(C)c2cc(S(=O)(=O)N3CCSc4ccccc43)ccc21	1	-0.3
Cc1ccc(C2=NC(C(C)C)NC(c3ccccc3O)C2)cc1 (stereo not given)	7	-0.2
COc1cccc(C(=O)Nc2nn3c(COc4ccccc4)nnc3s2)c1	8	1.1
COc1cccc(Oc2ccc(C(F)(F)F)cc2N)c1	-8	3.8
COc1ccc(CNC(=O)c2cc3c(=O)oc4ccccc4c3s2)cc1	9	-1.4
COc1ccc(-n2nc(C(=O)NCC(=O)N3CCOCC3)c3ccccc3c2=O)cc1	-25	nt
COc1cccc(N(C)C(=O)c2cccc(I)c2)n1	2	nt
CCN(CC)CCCCCCCCOC(=O)c1cc(OC)c(OC)c(OC)c1	nt	-0.1
COc1ccc(NC(=O)CCSc2ccc3ccccc3n2)cc1	4	-1.0
Cc1cc(Cl)ccc1N=C(N)NN	nt	-1.2
CN(C)CCNc1nc2ccccc2n1C	15	nt
O=C(c1ccco1)N1CCN(C2CC(=O)N(c3ccc(F)c(Cl)c3)C2=O)CC1 (stereo not given)	10	2.3
COC(=O)C1=CN(C(C)C)C=C(C(=O)OC)C1c1ccc(C(C)C)cc1	-4	2.3
CCC1(CC)C(=O)C(C)(C)C(=O)OC1c1ccccn1 (stereo not given)	16	-2.3
COc1cccc(C(N)=O)c1O	14	nt
CCN(CC)S(=O)(=O)c1cccc(-n2sc3ccccc3c2=O)c1	0	nt
Nc1nc(SCc2ccccc2)n(-c2ccccc2)n1	-12	1.1
CCOc1cc(/C=C2/SC(=Nc3ccccc3F)NC2=O)ccc1O	-71	nt
Cc1cc(C(=O)Cn2cc(S(=O)(=O)N(C)C)ccc2=O)c(C)n1C1CCS(=O)(=O)C1 (stereo not given)	-15	nt
CSc1ccccc1C(=O)NC1CC1	-4	nt

Next part (7 carried over from the part before).
SMILES	Sa helicase inh	MgrA-DNA mod
CCC1(CC)C(=O)C(C)(C)C(=O)OC1c1ccccn1 (stereo not given)	16	-2.3
COc1cccc(C(N)=O)c1O	14	nt
CCN(CC)S(=O)(=O)c1cccc(-n2sc3ccccc3c2=O)c1	0	nt
Nc1nc(SCc2ccccc2)n(-c2ccccc2)n1	-12	1.1
CCOc1cc(/C=C2/SC(=Nc3ccccc3F)NC2=O)ccc1O	-71	nt
Cc1cc(C(=O)Cn2cc(S(=O)(=O)N(C)C)ccc2=O)c(C)n1C1CCS(=O)(=O)C1 (stereo not given)	-15	nt
CSc1ccccc1C(=O)NC1CC1	-4	nt
COc1cc(OC)c(NC(=O)Cn2cnc3onc(-c4ccc(F)cc4)c3c2=O)cc1Cl	16	nt
CCOC(=O)CN1CC23C=CC(O2)C(C(=O)NCc2ccc(OC)cc2)C3C1=O (stereo not given)	10	0.3
COc1ccc2c(CNCCc3ccccc3OC)c(C(=O)O)n(C)c2c1	-3	-1.3
CCOCCOC(=O)C1=C(C)NC2=C(C(=O)CCC2)C1c1ccc(OCc2ccccc2)c(OC)c1 (stereo not given)	nt	2.2
O=C(CNC(=O)C1CCCCC1)Nc1ccccc1N1CCOCC1	4	nt
Cc1ccc(Cn2cc(CCC(=O)NC(C)C)c3ccccc32)cc1	12	-0.6
CSc1nc(N)c(C#N)c(Cc2ccccc2)c1C#N	-29	nt
COc1cc(C(=O)OCC(=O)c2ccccc2)cc(OC)c1OC	nt	-0.5
CCOC(=O)N1CCN(C(=O)CN(Cc2ccc(F)cc2)S(=O)(=O)c2ccc(C)cc2)CC1	-2	0.2
C=C(C)Cn1c(SCC(N)=O)nc2c(c1=O)C1(CCCC1)Cc1ccccc1-2	7	nt
CC1CCCCN1C(=O)CCNC(=O)Cn1cnc2ccccc2c1=O (stereo not given)	18	nt
O=C(NC(=S)N1CCN(c2ccccc2O)CC1)C12CC3CC(CC(C3)C1)C2	-5	nt
COc1ccc(OC(C)c2nc(-c3ccc(OC)cc3)no2)cc1 (stereo not given)	12	nt
CN(CCc1ccccn1)Cc1ccncc1	5	nt
CC(Sc1nnc(C(F)(F)F)n1N)C(=O)N(C)C1CCCCC1 (stereo not given)	-1	nt
CCOc1ccc(C(=O)Nc2sccc2C#N)cc1	-20	nt
CCn1c(SCC(=O)N2CCCc3ccccc32)nnc1-c1cccs1	nt	-0.3
O=C(CN1C(=O)/C(=C\c2ccccc2F)Oc2ccccc21)NC1CC1	-3	nt
CC(C)OC(=O)CSc1nnc(-c2ccc(O)cc2)o1	6	-3.5
CC1CCN(C(=O)c2cc3nc(-c4ccco4)cc(C(F)(F)F)n3n2)C2CCCCC12 (stereo not given)	14	-1.3
COc1ccc(CC(=O)c2ccc(OC)cc2O)cc1	16	nt
COc1ccc(-c2nnc(SCC(=O)NC(N)=O)n2C2CCCCC2C)cc1 (stereo not given)	2	nt
CC(=O)N(Cc1cc2ccccc2[nH]c1=O)c1ccccc1	-8	nt
O=C1CCCC(O)=C1C=Nc1ccc(Cl)c(Cl)c1	nt	-1.9
O=C(c1ccco1)N1CCN(Cc2nc3ccccc3[nH]2)CC1	-14	nt
C=CCNC(=O)c1cc2sccc2n1Cc1ccccc1	5	-0.7
CN1C(=O)CC(C(=O)O)SC1=Nc1cccc(C(F)(F)F)c1 (stereo not given)	5	-2.2
O=C(O)C1CCN(C(=O)OCC2c3ccccc3-c3ccccc32)CC1	nt	-1.7
O=C(Nc1cccc(F)c1)Nc1ccon1	7	2.0
O=c1[nH]c2cc3nc(C(F)(F)F)[nH]c3cc2[nH]1	-11	-3.0
CC(C)Cn1c(=O)c2cc3c(=O)n(CC(C)C)c(=O)c3cc2c1=O	-6	nt
O=C(COC(=O)C1CC(=O)N(Cc2ccco2)C1)Nc1cccc(C(=O)Nc2cccc(C(F)(F)F)c2)c1 (stereo not given)	17	nt
O=C1c2ccccc2C(=O)c2c1cccc2-c1ccc(/C=C2\SC(=S)N(c3ccccc3)C2=O)o1	nt	0.9
COc1ccc(C2=NN(C(=O)c3cccs3)C(c3cc4ccccc4nc3Cl)C2)cc1 (stereo not given)	7	1.9
CC(C(=O)Nc1ccc(S(=O)(=O)N2CCCC2)cc1)N(C)Cc1ccc(F)cc1 (stereo not given)	1	nt
O=C(COc1ccc2ccc(=O)oc2c1)c1ccccc1Cl	-2	-4.3
CCN(CC)CCCn1c(SCc2nc3sc4c(c3c(=O)[nH]2)CCC4)nc2ccccc2c1=O	-12	nt
CCCCCCn1c(=S)[nH]c2ccccc2c1=O	-9	nt
Clc1cc(Cl)c2nc(N3CCCCC3)sc2c1	nt	2.3
CCOC(=O)CSc1nccc(-c2sc3scc(C)c3c2C)n1	nt	-2.0
O=C(Nc1ccccc1Oc1ccc(Cl)cc1Cl)c1cccc(C(F)(F)F)c1	nt	-1.4
O=C(O)c1c2c(nc3ccccc13)CCN(S(=O)(=O)c1ccc(Cl)cc1)C2	8	2.7
Clc1cccc(Cl)c1Cn1nnc(N2CCCCC2)n1	nt	-2.5
CCOC(=O)N1CCN(C(=O)c2ccc3c(=O)n(CCc4ccccc4)c(=O)[nH]c3c2)CC1	2	4.4
N#CCC(=O)Nc1ccccc1C(=O)O	-23	-1.6
CC(=O)Nc1n[nH]c(-c2ccc(C)cc2)c1C	6	1.9
Cc1ccc(C(=O)c2nccn2C)cc1C	11	nt
C=C(C)CSc1nnc(-c2ccc(C(C)(C)C)cc2)o1	-1	nt
N#Cc1c(Cl)cccc1NC1CCSC1 (stereo not given)	nt	-1.5
O=C(Nc1ccc(Cl)cc1)c1csnn1	29	nt
O=C(Nc1ccccc1C(=O)Nc1nnc(C(F)(F)F)s1)c1ccccc1	nt	0.4
CC(NS(C)(=O)=O)c1nc(-c2ccccc2)no1 (stereo not given)	19	nt

Bioassay records deposited in PubChem by ICCB-Longwood Screening Facility, Harvard Medical School.
